From PubChem BioAssay
KCNQ2 inh = KCNQ2 channel blockers in CHO-K1 cells – cell-based, FluxOR thallium flux, B-score, primary screen (AID 2156). O88943. 20 min; hits give low values; only compounds with negative scores are shown here; some inactives read as strong as hits. B-score at 10 µM. actives 1.1% (n = 310,000);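 active means fluorescence ratio B-score at most minus 3 library SDs, with starting brightness B-score within 2 library SDs, cut at about -5.5 in these data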
Target sequence (O88943 whole entry, looked up): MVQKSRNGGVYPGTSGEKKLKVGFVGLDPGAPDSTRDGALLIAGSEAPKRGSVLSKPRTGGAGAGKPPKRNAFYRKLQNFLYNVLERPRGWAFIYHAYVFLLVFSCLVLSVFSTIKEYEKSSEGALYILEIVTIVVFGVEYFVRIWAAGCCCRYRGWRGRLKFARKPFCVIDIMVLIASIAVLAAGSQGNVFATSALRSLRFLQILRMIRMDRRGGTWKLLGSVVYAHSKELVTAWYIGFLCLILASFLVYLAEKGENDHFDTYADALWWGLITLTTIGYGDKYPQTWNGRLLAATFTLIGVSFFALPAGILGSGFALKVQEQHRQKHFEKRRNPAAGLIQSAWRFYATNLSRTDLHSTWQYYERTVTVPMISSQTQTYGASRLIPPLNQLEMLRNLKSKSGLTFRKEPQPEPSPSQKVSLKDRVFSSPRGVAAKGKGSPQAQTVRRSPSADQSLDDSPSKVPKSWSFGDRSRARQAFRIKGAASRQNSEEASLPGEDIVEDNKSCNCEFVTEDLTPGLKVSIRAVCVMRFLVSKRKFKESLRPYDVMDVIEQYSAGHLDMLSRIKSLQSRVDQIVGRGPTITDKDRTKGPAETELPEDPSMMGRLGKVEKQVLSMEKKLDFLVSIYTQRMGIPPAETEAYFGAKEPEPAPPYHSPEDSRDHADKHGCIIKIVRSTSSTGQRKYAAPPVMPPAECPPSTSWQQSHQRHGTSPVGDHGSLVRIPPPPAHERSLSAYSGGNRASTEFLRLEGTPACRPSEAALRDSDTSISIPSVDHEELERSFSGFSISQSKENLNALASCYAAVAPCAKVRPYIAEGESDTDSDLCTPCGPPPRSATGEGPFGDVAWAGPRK
KCNQ2 inh baseline = second read-out of KCNQ2 inh, no call of its own (marks repeat the call); B-score; measured here: initial fluorescence intensity artifact check;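 brightness before thallium and not channel activity; 0 = typical well and far values either way flag optical interference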
The depositor's hits bear a star; i = inactive.

canonical_smiles | KCNQ2 inh | KCNQ2 inh baseline
COc1ccc(-c2cc(C(=O)NCCN3CCOCC3)c3ccccc3n2)c(OC)c1 | i | -0.82
O=C1N/C(=N\S(=O)(=O)Cc2ccccc2)S/C1=C/c1cc([N+](=O)[O-])ccc1O | i | 0.69
O=C(CSc1n[nH]c(=O)n1C1CC1)Nc1ccccc1 | i | -0.58
CCCc1cc(=O)[nH]c(SCC(=O)c2ccc3c(c2)NC(=O)CO3)n1 | i | 0.77
CC1(C)CC2CC(C)(CN2C(=S)Nc2ccccc2)C1 (stereo not drawn) | i | -0.45
COc1ccc(C(=O)Oc2cccc3cccnc23)cc1[N+](=O)[O-] | i | -0.71
COc1cccc(C(C)NC(=O)c2ccncc2)c1 (stereo not drawn) | i | 1.8
COCCN(Cc1ccc(C)c(Br)c1)C(=O)Cn1cnc(S(=O)(=O)N2CCCC2)c1 | i | -0.34
Cc1cc(C)cc(OCC(=O)NNC(=O)c2ccoc2C)c1 | i | 1.5
CCc1nn(CCCC(=O)NCc2ccc(C)cc2)c(=O)c2cc3occc3n12 | i | -2.1
CSc1ncc(CN2CCN(C3CCCCC3)C(CCO)C2)cn1 (stereo not drawn) | i | -0.73
CCOC(=O)C1CCCN(S(=O)(=O)c2ccc(-n3cnnn3)c(C)c2)C1 (stereo not drawn) | i | 1
CC(=O)c1ccc(O)c(CO)c1 | i | -3.8
Cc1ccc(S(=O)(=O)NCc2ccccc2)cc1C(=O)NCc1ccccn1 | i | 0.05
Clc1ccc(-c2nc3cnccn3c2NC2CCCC2)cc1 | i | 0.46
O=C(O)C1CSC2(c3ccc(F)cc3)CCC(=O)N12 (stereo not drawn) | i | 1.8
COc1ccc2[nH]c(=O)c(CN(C)C(=O)COc3ccccc3)cc2c1 | i | -1.9
Cc1ccc2c(c1)N(CCC(=O)NCc1ccc3c(c1)OCO3)C(=O)CO2 | i | -0.3
CCOC(=O)c1c(NC(=O)CSc2nnnn2CC)sc(C)c1C | i | 0.16
COc1ccccc1-c1nc2cc3ccccc3cc2nc1-c1ccccc1 | i | -0.15
COc1ccc(S(=O)(=O)Nc2ccc3c(c2)n(C)c(=O)n3C)cc1 | i | 0.85
C(=N\Nc1nc2ccccc2[nH]1)/c1ccccc1 | i | 0.02
COc1cc(OC)c(OC)cc1/C=C/c1cc(C(=O)O)c2ccccc2n1 | i | -0.46
Cc1noc(C)c1C(=O)NCCC1=CCCCC1 | i | -0.11
COc1ccc(CCNC(=O)C(C)n2nc(C)c3c(C)n(-c4ccc(C)cc4)nc3c2=O)c(OC)c1 (stereo not drawn) | i | 0.02
COC(=O)c1sccc1NC(=O)COc1ccccc1Cl | i | 0.56
O=C(CNC(=O)c1ccccc1F)OCC(=O)N1CCCc2ccccc21 | i | -0.1
CC[C@@H](C)[C@@H](C(=O)N1CCN(C(=O)OC(C)(C)C)CC1)n1cc(CCCCNC(=O)OC(C)(C)C)nn1 | i | 1.4
O=C(Cc1nc2ccccc2[nH]1)N/N=C/c1ccccc1 | i | 0.38
CNCCOc1ccc(Cl)c(Cl)c1 | i | 0.7
NS(=O)(=O)c1ccc(CCNC(=O)CCc2nc3ccccc3s2)cc1 | i | -0.5
Cc1ccc(F)cc1NC(=O)CN1C(=O)NC2(CCCc3ccccc32)C1=O (stereo not drawn) | i | -0.67
Cc1ccc(C(=O)NNC(=O)c2cccc(Br)c2)cc1 | i | 2.4
CC1=NC(C)(C)Cc2c(C)cccc21 | i | 0.13
CN1CCN(C(=O)C2CCC(=O)N(CCc3cccc(F)c3)C2)CC1 (stereo not drawn) | i | 0.19
Cc1sc2nc(CSc3nnc(Cc4cccs4)n3C3CCCCC3)[nH]c(=O)c2c1C | i | 0.77
COc1ccc(/C=C2\N=C(C)OC2=O)cc1[N+](=O)[O-] | i | 0.36
COc1ccc(C(=O)Nc2ccc3ccccc3c2)cc1OC | i | 1.4
O=C(Nc1nc2c(s1)CCCC2)c1ccc(N2C(=O)CCC2=O)cc1 | i | 2.7
CC(C)CC1Nc2ncnc(N3CCN(c4ccccc4)CC3)c2N(Cc2ccc(Cl)cc2)C1=O (stereo not drawn) | i | -1.8
COc1ccc(C2N=C(N)N=C(N)N2c2ccccc2OC)cc1OC (stereo not drawn) | i | 0.35
C=C(C)n1c(=O)n(Cc2ccc(C)cc2)c2ccccc21 | i | -0.36
CC(=O)c1cccc(NC(=O)C2CCN(S(=O)(=O)c3ccccc3)CC2)c1 | i | 0.74
O=C1Nc2ccccc2/C1=C/c1ccccc1F | i | -0.06
Cc1ccc(OC(C)C(=O)N2CCCc3ccccc32)cc1 (stereo not drawn) | i | 0.02
O=C(NCCc1cccc(C(F)(F)F)c1)C1CCC(=O)N(CCc2cccc(F)c2)C1 (stereo not drawn) | i | 1.1
CCCN(CCC)C(=O)C1CCCN1S(=O)(=O)c1cccc2nsnc12 (stereo not drawn) | i | 1.5
CC(O)c1cccc(NC(=O)Nc2cccc(NC(=O)Nc3cccc(C(C)O)c3)c2)c1 (stereo not drawn) | i | -3.1
COc1ccc2c(c1)c1nc3n(c(=O)c1n2CC(=O)Nc1ccccc1)CCS3 | i | 0.58
COC(=O)c1ccc(CNC(=O)C2CCC(=O)N(Cc3cccc(F)c3)C2)cc1 (stereo not drawn) | i | -0.76
CC(C)=NOc1cc(NC(=O)CCl)cc([N+](=O)[O-])c1 | i | -0.24
CCOC(=O)/C(C(=O)Nc1ccc(Cl)cc1Cl)=C1/NC(C)(C)Cc2ccccc21 | -6.3* | -0.11*
Cc1nc2c(-c3ccc(F)cc3)c(C)nn2c(C)c1CCC(=O)N1CCC(Cc2ccccc2)CC1 | -6.1* | 0.02*
CC(=O)N1CCC(N(CCCOC(C)C)C(=O)Nc2ccc(Cl)cc2)CC1 | i | 0.11
Cc1ccc(S(=O)(=O)N2CCN(CC(=O)N/N=C\c3cccnc3)CC2)cc1 | i | 0.19
Cc1cc(C)n(C(=O)c2ccc(C)c(S(=O)(=O)N3CCCC3)c2)n1 | i | 0.31

(cont.)
canonical_smiles | KCNQ2 inh | KCNQ2 inh baseline
COC(=O)CSc1nnc(CCc2nc3ccccc3[nH]2)n1C | i | 0.05
Cc1ccc(NC(=O)C2CCN(S(C)(=O)=O)CC2)c(C)c1 | i | 0.32
CCCc1c(C(=O)N/N=C/c2cccc(OCc3ccc(F)cc3)c2)nnn1-c1nonc1N | i | -0.79
C/C(=N\O)c1ccn(S(=O)(=O)c2ccc(Cl)cc2)c1 | i | 1.1
COc1ccccc1CNc1ncnc2c1nnn2Cc1ccccc1 | i | 0.29
COc1ccc2cc(C(=O)C3CCCN(C(=O)c4cncs4)C3)ccc2c1 (stereo not drawn) | i | -1.8
N#C/C(=C\c1ccccc1)C(=O)N(c1ccccn1)C1CCCCC1 | i | -0.96
CC(C)/C=C/C(=O)N1CCCC(N2CCN(c3ccccc3F)CC2)C1 (stereo not drawn) | i | 0.41
CC1(C)CC(=O)C2=C(C1)OC(N)=C([N+](=O)[O-])C2c1ccc(C#N)s1 (stereo not drawn) | i | 0.66
CCOC(=O)c1c(C)sc2c1N(C(=O)CN1CCOCC1)c1cc(Cl)ccc1S2 | i | 1.6
COc1ccc(C(=O)CCS(=O)(=O)c2ccc(C)cc2)cc1 | -6.4* | 0.41*
Cc1nn(Cc2ccc(F)cc2)c2sc(C(=O)Nc3ccccc3N3CCOCC3)cc12 | i | 2.9
CCOCCCNC(=O)CCn1nc(-c2ccc(Cl)cc2)ccc1=O | i | -0.34
COc1ccccc1N(CC(=O)N(c1ccccc1)C(C)C)S(=O)(=O)c1cccs1 | i | -0.01
O=C1c2cccc3cccc(c23)C(=O)N1CCCc1n[nH]c(=S)n1-c1ccccc1 | i | -0.66
Cc1cccn2c(=O)c(/C=C(\C#N)S(=O)(=O)c3ccccc3)c(N3CCN(C)CC3)nc12 | i | 2
COC(=O)CSc1nnc(-c2ccc(S(=O)(=O)NCc3cccs3)cc2)o1 | i | 1.3
CCSC1=NCCN1S(=O)(=O)c1ccc(NC(C)=O)cc1 | i | -0.33
Cc1ccc(Cn2c(-c3nonc3N)nc3ccccc32)cc1 | i | -0.12
Cc1ccc(S(=O)(=O)N2CCCSCC2)cc1 | i | -1.8
CC(OCC(O)CN(C)Cc1nc2ccccc2c(=O)[nH]1)c1ccc(Cl)cc1 (stereo not drawn) | i | 1.1
CN(C)CCCn1c2c(c(SCC(=O)Nc3nccs3)nc1=O)CCC2 | i | 0.74
CCOc1ccc(NC2=CC(=O)CCC2)cc1 | i | 0.16
CC12CCC(C(=O)N3CCC(Cc4ccccc4)CC3)(C(=O)C1=O)C2(C)C (stereo not drawn) | i | -0.05
COc1ccc(C)cc1NC(=O)C1CCCCC1C(=O)O (stereo not drawn) | i | 1.1
CC(C)(C)c1ccc(C(=O)Nn2c(CCC(=O)O)ccc2-c2cccs2)cc1 | i | -1.3
COc1ccc(C2CC(c3ccc4ccccc4c3)=NN2C(=O)CN2CCC(C(N)=O)CC2)cc1 (stereo not drawn) | i | 0.45
O=C(NC1CCCCCCC1)C1CCN(c2nc3ccccc3o2)CC1 | i | 0.46
COc1cccc2sc(NNC(=O)COc3ccccc3)nc12 | i | -1.3
O=C(NNC(=O)c1cccs1)c1ccncc1 | i | -1.8
O=C(Nc1ccccc1N1CCCCC1)C1CCN(C(=O)c2ccc(Cl)cc2)CC1 | i | -0.59
CCc1nc(OCc2ccco2)c2sc3nc4c(cc3c2n1)COC(C)(C)C4 | i | -1.2
CCCc1c2ccccc2nc2ccccc12 | i | 1.2
CC1CCC2(CC1)NC(=O)N(CC(=O)c1cccn1C)C2=O (stereo not drawn) | i | 0.86
COc1cccc(C(=O)C2CCCN(Cc3cn(C)nc3-c3ccccc3)C2)c1 (stereo not drawn) | i | 0.92
Cc1cccc(NS(=O)(=O)c2ccc(C(=O)NCC(c3ccccc3)N(C)C)cc2)c1C (stereo not drawn) | i | -0.13
Cc1nc(N2CCCCC2)sc1C(=O)c1ccc(Cl)c([N+](=O)[O-])c1 | i | -1.2
COc1cc(-c2c(C#N)c(=O)[nH]c3c2c(C)nn3-c2ccccc2)ccc1O | i | -0.35
COc1ccc(Cn2nnnc2CN2CCc3ccccc32)cc1 | i | 0.06
Cc1nc(C/C(=N\N)c2ccc(O)cc2O)cs1 | i | -0.12

The list goes on; it opens with the 4 that closed the last part.
canonical_smiles | KCNQ2 inh | KCNQ2 inh baseline
Cc1nc(N2CCCCC2)sc1C(=O)c1ccc(Cl)c([N+](=O)[O-])c1 | i | -1.2
COc1cc(-c2c(C#N)c(=O)[nH]c3c2c(C)nn3-c2ccccc2)ccc1O | i | -0.35
COc1ccc(Cn2nnnc2CN2CCc3ccccc32)cc1 | i | 0.06
Cc1nc(C/C(=N\N)c2ccc(O)cc2O)cs1 | i | -0.12
CCC(Sc1nc(N)c(NC(=O)c2ccc(Br)o2)c(=O)[nH]1)C(=O)O (stereo not drawn) | i | 0.64
CCOc1ccc(NC(=O)C2CCCN2C(=O)Oc2ccccc2)cc1 (stereo not drawn) | i | 0.84
CN(CCO)c1cc(N2CCC3(CC2)OCCO3)c2nonc2c1[N+](=O)[O-] | i | -3.1
CC1(c2ccc(OCC(N)=O)cc2)NC(=O)NC1=O (stereo not drawn) | i | -2
O=C(NCc1ccccc1)C1(c2ccccc2)CCN(S(=O)(=O)c2ccccc2)CC1 | i | 2.8
COc1cc(/C=C(/C#N)C(=O)Nc2ccccc2)c(Br)cc1OCc1ccc(C(=O)O)cc1 | i | -1.6
O=C1NC(=O)/C(=C\c2ccc(Cl)nc2)S1 | i | 0.24
NC(=O)CN1CCN(S(=O)(=O)c2ccc(Br)cc2)CC1 | i | -2

Quoted from the entries so far, seven compounds:
canonical_smiles | KCNQ2 inh | KCNQ2 inh baseline
COc1ccc(Cn2nnnc2CN2CCc3ccccc32)cc1 | i | 0.06
Cc1nc(C/C(=N\N)c2ccc(O)cc2O)cs1 | i | -0.12
CCC(Sc1nc(N)c(NC(=O)c2ccc(Br)o2)c(=O)[nH]1)C(=O)O (stereo not drawn) | i | 0.64
CCOc1ccc(NC(=O)C2CCCN2C(=O)Oc2ccccc2)cc1 (stereo not drawn) | i | 0.84
CN(CCO)c1cc(N2CCC3(CC2)OCCO3)c2nonc2c1[N+](=O)[O-] | i | -3.1
CC1(c2ccc(OCC(N)=O)cc2)NC(=O)NC1=O (stereo not drawn) | i | -2
O=C(NCc1ccccc1)C1(c2ccccc2)CCN(S(=O)(=O)c2ccccc2)CC1 | i | 2.8

Later entries
canonical_smiles | KCNQ2 inh | KCNQ2 inh baseline
N#Cc1c(-c2ccccc2)cc(-c2ccc(O)cc2)nc1N | i | -1.7
Cc1ccc2nsnc2c1S(=O)(=O)N(Cc1ccco1)Cc1cc2cccc(C)c2[nH]c1=O | i | 1.1
CC(C)c1ccccc1NC(=O)Cn1c(-c2ccccc2Cl)nc2ccccc21 | i | 0.7
CC(C)C[C@H](NC(=O)c1nc[nH]c1C(=O)N(C)Cc1ccccc1)C(=O)OCc1ccccc1 | i | -0.7
COC(=O)c1cccc(NC(=O)CCc2cc(OC)c(OC)c(OC)c2)c1 | i | -1.3
CCN(CC(=O)Nc1ccc2c(c1)OCCO2)Cc1cc(=O)oc2c(C)c(C)ccc12 | i | -1
CCOC(=O)c1ccc(NC(=O)C(=O)NCC2(c3ccc(OC)cc3)CCOCC2)cc1 | i | 0.72
O=C(O)c1ccc(NC(=O)c2ccc3c(c2)C(=O)N(CC2CCCO2)C3=O)cc1 (stereo not drawn) | i | 0.67
CCCOc1ccc(C(O)CCNC(CC(=O)O)c2ccccc2)cc1 (stereo not drawn) | i | 6.2

A portion of the library; rates above refer to the full screens.
